Mtb H37Rv: Mycobacterium tuberculosis H37Rv growth inhibition, cell based, confirmatory dose response (AID 1949). most inactive calls were filed without a number and no value below 0 was filed. inhibition, % at 10 µg/mL, or IC50 in µg/mL where a hit was titrated. 100,000 tested, 1.6% active;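 active means confirmed in a dose series; inconclusive means about 50% or more but not retested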;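 further: bacteria grown 7 days with compound before Alamar blue readout; 0% = untreated bacteria and 100% = reference antibiotic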
Numbers without * were called inactive; i = inactive; ? = inconclusive. A portion of the library; the hit share may differ from the screen's.

SMILES	Mtb H37Rv
S=C(NCCc1ccccc1)NNC(=S)NC1CCCCC1	i
COc1ccc(C(=O)Nc2ccc(Oc3ccc(C#N)cc3)cc2)cc1OC	i
COCCNC(=O)Cn1nc(-c2ccc(C)cc2)c2ccccc2c1=O	i
O=[N+]([O-])c1cccc(CSc2nc3ccccc3s2)c1	i
COc1ccc(N(CC(=O)Nc2ccccc2SC)S(=O)(=O)c2ccccc2)cc1Cl	4.2%
Nc1nc(-c2ccco2)nn1C(=O)Cc1ccccc1	i
CSc1nsc(SCc2cnc(C)nc2N)n1	i
CC(=O)N(c1cccc(C)c1C)C1C=CS(=O)(=O)C1 (stereo not drawn)	i
S=C(Nc1ccccc1)N(Cc1ccccc1)Cc1ccncc1	i
COc1cc(COCC(O)CN2CCN(c3ccccc3F)CC2)cc(OC)c1OC (stereo not drawn)	i
COc1cc(OC)c(C(=O)NCC2CCCO2)cc1OC (stereo not drawn)	i
COc1ccc(N(CC(=O)Nc2ccc(C(N)=O)cc2)S(=O)(=O)c2ccc(C)cc2)cc1Cl	i
COC(=O)c1ccc(C(=O)OC)c(NC(=O)c2ccc(-c3cccc([N+](=O)[O-])c3)o2)c1	i
CCCn1c(-c2ccc(F)cc2)n[nH]c1=S	i
C=CCn1c(-c2ccc(OCCC)cc2)n[nH]c1=S	i
COc1ccc2c(=O)c(-c3ccccc3)c(C)oc2c1OC	i
O=C(CC1(O)C(=O)Nc2c(C(F)(F)F)cccc21)c1ccco1 (stereo not drawn)	i
Cc1c(C(=O)N2CCC3(CC2)OCCO3)oc2ccccc12	i
CC(=O)C1=C(C)NC(=S)NC1c1ccccc1OCc1ccccc1Cl (stereo not drawn)	6.2%
CCC(C)n1[nH]c(=O)c2c1NC(=O)CSC2c1ccc2c(c1)OCO2 (stereo not drawn)	i
O=C(Nc1nc(-c2ccccc2)cs1)C1Cc2ccccc2CN1S(=O)(=O)c1cccs1 (stereo not drawn)	42.7%
COc1ccc(CN2CCN(Cc3ccccc3)CC2)cc1C	i
O=C1c2cccc3cc([N+](=O)[O-])cc(c23)C(=O)N1c1cccc(Cl)c1	i
O=C(O)CC(Cn1[nH]nnc1=S)c1ccccc1 (stereo not drawn)	i
CCCCc1ccc(N/C(N)=N\c2nc(C)cc(C)n2)cc1	23.3µg/mL*
COc1cc(NC(=O)c2ccc(N3C(=O)CCC3=O)cc2)c(C(=O)O)cc1OC	i
Cc1ccc(C(=O)O/N=C(\N)c2cccnc2)c(C)c1	i
O=C(O)C1C2C=CC3(O2)C1C(=O)N1c2ccccc2COC13 (stereo not drawn)	0.2%
C=CCn1c(SCC(=O)Nc2nc(-c3ccc(C)cc3)cs2)nnc1-c1ccccc1O	i
COc1cc(C2CC(=O)n3nc(-c4ccc(Cl)c(Cl)c4)nc3S2)cc(OC)c1OC (stereo not drawn)	i
Cc1ccc(S(=O)(=O)N2CCN(C(=O)N3CCOCC3)CC2)cc1C	i
CCOc1ccc(NC(=O)CCCOc2ccc(Cl)cc2C)c([N+](=O)[O-])c1	i
O=C(c1ccccc1Oc1nnnn1-c1ccccc1)N1CCCC1	i
CSc1ccccc1C(=O)NC1CC2CCC1C2 (stereo not drawn)	i
N#Cc1sc2nc3c(c(C4CC=CCC4)c2c1N)CCC3 (stereo not drawn)	3.0%
Cc1cccc(C(=O)Nc2sc(Cc3ccccc3)c(C)c2C(N)=O)c1	i
CC(=O)c1ccc(S(=O)(=O)N2CCCCC2)cc1	i
CCOC(=O)c1c(NC(=O)Cn2cnc3sc4c(c3c2=O)CCCC4)sc2c1CCC(C)C2 (stereo not drawn)	1.4%
CN(C)C(=O)Nc1ccc(I)cc1	1.7%
OC1/C(=C/c2ccc3c(c2)OCO3)N2CCC1CC2 (stereo not drawn)	i
CC(C)CNC(=O)c1cccc(NC(=O)CSc2ccccc2)c1	i
Brc1cccc(Nc2ncnc3ccccc23)c1	1.2%
CCNS(=O)(=O)c1ccc(NC(=S)Nc2sc(C)c(C)c2C(=O)OC)cc1	i
COc1ccc(NC(=O)CCC(C(C)=O)[N+](=O)[O-])cc1 (stereo not drawn)	i
Cc1ccc(CNC(=O)CN(c2cc(C)ccc2C)S(=O)(=O)c2ccccc2)cc1	i
O=C(CN(CCc1ccccc1)S(=O)(=O)c1ccc(Br)cc1)NCCO	2.5%
CCOC(=O)c1ccc(NC(=O)CS(=O)(=O)c2ccc(C)cc2)cc1	5.8%
Cc1ccc([N+](=O)[O-])cc1NC(=O)c1cc2ccccc2o1	i
COc1ccc(C)cc1NC(=S)NN1CCN(C)CC1	i
COC(=O)c1cc(NC(=S)Nc2cccc3ccccc23)cc(C(=O)OC)c1	i
CCSCc1nnc(SCC(=O)Nc2cc(C)c(C)cc2Br)n1C	i
CC(=O)CSc1nc2ccc(NC(=O)c3ccc([N+](=O)[O-])cc3)cc2s1	2.3%
O=C(Cc1ccc(Cl)cc1)NC1CC1	i
Nc1ccccc1-c1nnc(SCc2ccccc2F)[nH]c1=O	31.2%
O=C(c1cccc(S(=O)(=O)N2CCOCC2)c1)N1CCCc2ccccc21	2.0%
COc1ccc(C2=NN(S(C)(=O)=O)C(c3ccccc3F)C2)cc1 (stereo not drawn)	i
CC(C)c1ccc(N2C(=O)CC(N3CCCCC3)C2=O)cc1 (stereo not drawn)	i
CCOC(=O)c1c(NC(=S)Nc2cc(OC)c(Cl)cc2OC)sc(C)c1-c1ccccc1	i
CS(=O)(=O)N1CCC(C(=O)Nc2cc(Cl)cc(Cl)c2)CC1	i
CN(C)CCCCOc1ccc(I)cc1	i

Continued.
SMILES	Mtb H37Rv
Cc1ccc(NC(=O)Cn2cnc3c2c(=O)n(C)c(=O)n3C)c(C)c1	i
O=C(CSc1nc2ncccc2[nH]1)NCc1ccccc1	i
COC(=O)c1ccc(COC(=O)c2ccccc2Cl)cc1	1.69µg/mL*
O=C1c2ccc(-c3nc4cc(Cl)ccc4c(=O)o3)cc2C(=O)N1CC1CCCO1 (stereo not drawn)	i
CC(=O)NC(=S)Nc1ccc(Cl)cc1	i
NC(=S)c1c(NC(=O)c2ccccc2)sc2c1CCC2	i
CC(C)Oc1ccc(NC(=O)c2ccc(F)cc2)cc1	i
CCc1c(C)sc(NC(=O)c2cc(Cl)cc(Cl)c2)c1C(N)=O	i
O=C(Nc1c(F)cccc1F)C(c1ccccc1)c1ccccc1	i
CCCC(=O)Nc1ccc(C(=O)n2ccc(C)n2)cc1	i
COc1ccc(C(=O)N2CCN(C(=O)c3ccccc3OC)CC2)cc1	i
CCOC(=O)Nc1ccc2c(c1)Nc1ccccc1CC2	i
O=S(=O)(CCc1nc2ccccc2o1)c1ccc(Cl)c(Cl)c1	0.4%
CCOC(=O)CCc1c(C)c2cc(Cl)c(OC(C)C(=O)OCC)cc2oc1=O (stereo not drawn)	34.7%
CCc1ccc2c(c1)c1nc3ccccc3nc1n2C	4.2%
CS(=O)(=O)N(CC(=O)Nc1ccccc1Br)c1ccc(F)cc1	i
Cc1cccc(C)c1NC(=O)c1ccc(COc2ccc3c(c2)CCC3)o1	3.8%
COCCNC(=S)Nc1ccccc1-c1ccccc1	i
CCc1ccc(OCC(=O)Nc2cc(C)c(Cl)cc2OC)c(Br)c1	i
CC(C)(CN1CCN(C(=O)c2ccccc2)CC1)NS(=O)(=O)c1ccc(Cl)cc1	i
Fc1ccc(-c2cc(-c3n[nH]c(=S)n3-c3cccc4ccccc34)[nH]n2)cc1	i
CC(C)Oc1ccc(C(=O)N2CCC(Cc3ccccc3)CC2)cc1	2.0%
CCn1c(SCC(=O)Nc2ccc(Br)c(C)c2C)nnc1C(C)NC(=O)c1ccccc1Cl (stereo not drawn)	2.0%
COc1cc(C(=O)Nc2nc3c(C)cccc3s2)cc(OC)c1OC	i
CC(=O)Nc1ccc(S(=O)(=O)N2CCN(C(=O)N3CCOCC3)CC2)cc1	i
CNC(=O)C1=C(C)NC(=S)NC1c1ccc(C)cc1 (stereo not drawn)	i
CC(NC(=O)c1ccc(C(C)(C)C)cc1)C(=O)O (stereo not drawn)	i
CCn1c(SCC(=O)NCc2ccc(C)cc2)nnc1-c1ccc(N)cc1	i
O=C(NC(=S)Nc1ccccc1)c1ccc(Br)o1	i
COc1ccc(NC(=O)c2ccco2)cc1NC(=O)c1cccs1	i
CCn1c2ccc(F)cc2c2nc(C)sc21	i
CC(=O)c1ccccc1OC(=O)CCN1C(=O)C2C3C=CC(C4CC34)C2C1=O (stereo not drawn)	5.6%
O=C1CC(Cc2ccc(Cl)cc2)C(=O)N1c1ccc2ccccc2n1 (stereo not drawn)	i
O=C(NCc1ccccn1)c1nn2c(C(F)(F)F)cc(-c3ccccc3)nc2c1Cl	i
CN1C(=O)c2ccc(NC(=O)c3ccc(-c4cccc(Cl)c4Cl)o3)cc2C1=O	i
Cc1ccc(NC(=O)Cc2cccs2)c(Br)c1	i
O=c1[nH]c(N2CCN(Cc3ccccc3)CC2)nc(O)c1Cc1ccccc1	i
CCOc1ccc(-n2c(SCC(=O)Nc3c(F)cc(F)cc3Br)nnc2-c2cccnc2)cc1	1.5%
CCOc1ccc(-n2c(SCc3ccc(Br)cc3)nnc2-c2cccnc2)cc1	0.1%
COc1ccc(OC)c(NC(=S)NCc2cccnc2)c1	i
Cc1ccc(S(=O)(=O)Nc2ccc3oc4c(c3c2)CCCC4)c(C)c1	0.4%
CCNC(=S)N1CCN(CC(N)=O)CC1	0.3%
COc1ccc(Cl)cc1NC(=S)Nc1ccccc1F	i
CC1=C(C(=O)Nc2ccccc2)C(c2ccc(Cl)cc2)C(C(=O)Nc2ccccc2)=C(C)N1	?
COc1ccccc1NC(=O)CSc1ncnc2sc3c(c12)CCC3	i
Cc1ccc(C(=O)N2CCN(c3ccc([N+](=O)[O-])c(NCC4CCCO4)c3)CC2)cc1 (stereo not drawn)	i
COc1cc(OC)cc(C(=O)NCCOCc2ccccc2)c1	1.6%
Cc1c(Cc2ccccc2)sc(NC(=O)/C=C/c2cccc([N+](=O)[O-])c2)c1C(N)=O	i
CC(Oc1ccc(C(C)(C)C)cc1)C(=O)NC1CCS(=O)(=O)C1 (stereo not drawn)	i
O=S(=O)(Nc1cccc(C(F)(F)F)c1)C(F)(F)F	i
Nc1nnnn1CC(=O)NC(c1ccccc1)c1ccccc1	3.8%
COc1c(C)cc(Br)cc1C(=O)Nc1cccc(NC(=O)c2ccco2)c1	15.9%
COc1ccc(Cl)cc1NC(=O)CNS(=O)(=O)c1ccc(OC)c(OC)c1	i
CCOc1ccc(CC2S/C(=N\N=C\c3cccs3)NC2=O)cc1 (stereo not drawn)	i
COC(=O)c1c(NC(=O)c2ccc(N(C)S(=O)(=O)c3ccc(C)cc3)cc2)sc2c1CCCC2	2.1%
O=C(O)C1CC(=O)N(c2ccc(F)c(Cl)c2)C1 (stereo not drawn)	1.1%
O=C(CCc1ccccc1)Nc1nnc(SCC(=O)n2c3c(c4c2CCCC4)CCCC3)s1	7.2%
CCc1ccc(OC(=O)COc2ccc(Cl)cc2)c(Br)c1	i
CCc1ccc2nc(Nc3nccc(C)n3)nc(C)c2c1	i
CCC(C)c1ccc(O)c(NC(=S)NC(=O)c2cccnc2)c1 (stereo not drawn)	<0.1µg/mL*

Going on with the list:
SMILES	Mtb H37Rv
Cn1c(NC(=O)c2cc(-c3cccc(Br)c3)nc3ccccc23)cc(=O)n(C)c1=O	i
O=C(NC1CCCCC1)c1cc(F)c(F)cc1Cl	i
O=[N+]([O-])c1cccc(NC(=S)N2CCN(Cc3cccc(F)c3)CC2)c1	i
COc1ccc(S(=O)(=O)N(CC(=O)Nc2ccccc2SC)c2cc(C)cc(C)c2)cc1OC	i
CC(=O)c1c(C(C)=O)c(C)n(C2CCCCC2)c1C	i
C=CCn1c(SCC(N)=O)nnc1-c1ccco1	i
COC(=O)CSc1nc(C)c(Br)c(=O)[nH]1	6.1%
COc1ccc2ccccc2c1C1NC(=S)NC(C)=C1C(=O)Nc1ccc(F)c(F)c1 (stereo not drawn)	i
CC(=O)c1cccc(NC(=O)NCc2ccc(C(=O)O)cc2)c1	i
COc1ccc(CNC(=O)NC(=O)C(F)(F)F)cc1	i
O=C(CCCC(=O)Oc1ccccc1F)Nc1ccc(I)cc1	i
O=C(CC12CC3CC(CC(C3)C1)C2)NC(=S)Nc1ccc(I)cc1F	7.6%
COc1ccccc1OCCn1c(SC(C)C)nc2ccccc21	i
COc1cccc(NC(=O)c2ccccc2SC)c1	i
Cc1cc2oc(C(=O)N(Cc3ccc(N(C)C)cc3)C3CCS(=O)(=O)C3)c(C)c2cc1C (stereo not drawn)	15.3%
COc1cc(Br)cc2cc(C(=O)N3CCCC3)c(=O)oc12	0.9%
COc1ccc(N(CC(=O)Nc2ccccc2C(=O)NCc2ccco2)S(C)(=O)=O)cc1	i
Cc1ccccc1N(C(F)F)S(=O)(=O)c1cc([N+](=O)[O-])ccc1C	i

Source: PubChem
